FGF22 binding: binders of human FGF22 protein, primary screen, FGF22 synaptogenesis inhibitor project, biophysical, thermal shift, single point. Fibroblast growth factor 22 (Homo sapiens), Q9HCT0. recombinant FGF22 thermal shift, SYPRO orange fluorescence; percent of sucrose octasulfate shift, DMSO zero. calls only at 9.99 µM. 340,000 tested, 1.5% active;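 active = melting point raised past a set limit in the mean and every replicate; three in four hits are not shown here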
Target sequence (Q9HCT0 whole entry, looked up): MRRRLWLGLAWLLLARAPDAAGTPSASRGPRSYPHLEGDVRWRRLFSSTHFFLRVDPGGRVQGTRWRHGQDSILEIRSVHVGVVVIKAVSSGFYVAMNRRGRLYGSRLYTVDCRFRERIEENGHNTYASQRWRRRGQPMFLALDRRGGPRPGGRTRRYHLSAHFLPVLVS
MLL AF4-AF9 inh: inhibitors of AF4 peptide binding to AF9, primary screen, biochemical, AlphaScreen, biotin-AF4 peptide, FLAG-AF9, single point; Protein AF-9 (Homo sapiens), P42568; inhibition, % at 10 µM; 350,000 tested, 0.47% active; AID 651704, 2012;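 active = every replicate reaching a set inhibition limit, whatever the replicate mean, cut at about 25% in these data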;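 note: 0% = plate neutral control median and 100% = total signal loss; the record names both 10 and 1 µM as test concentration; the first replicate is given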
Target sequence (P42568 whole entry, looked up): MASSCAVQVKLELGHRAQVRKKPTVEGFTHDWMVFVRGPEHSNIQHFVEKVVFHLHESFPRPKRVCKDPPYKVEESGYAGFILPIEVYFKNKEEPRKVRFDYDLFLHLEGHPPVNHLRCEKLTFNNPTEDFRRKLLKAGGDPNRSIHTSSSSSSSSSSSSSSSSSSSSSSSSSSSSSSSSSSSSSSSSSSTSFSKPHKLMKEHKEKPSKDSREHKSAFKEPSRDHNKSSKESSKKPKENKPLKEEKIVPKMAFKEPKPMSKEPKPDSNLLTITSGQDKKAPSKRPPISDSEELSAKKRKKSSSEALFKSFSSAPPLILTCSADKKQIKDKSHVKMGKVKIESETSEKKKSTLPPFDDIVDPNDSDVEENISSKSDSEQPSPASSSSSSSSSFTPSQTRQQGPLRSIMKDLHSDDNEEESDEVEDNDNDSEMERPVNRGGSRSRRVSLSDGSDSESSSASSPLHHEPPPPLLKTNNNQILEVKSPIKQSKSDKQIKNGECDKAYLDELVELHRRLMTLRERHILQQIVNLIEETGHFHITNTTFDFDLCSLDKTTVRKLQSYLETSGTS
Ecoli rRNA inh: reduced GFP signal of wild-type E. coli, primary screen, bacterial rRNA inhibitor project, GFP/RFP fluorescence, OD600, single point | AID 720706, 2013 | E. coli WT GFP vs humanized-ribosome RFP mutants, 24 h; hits give low values; DMSO median 0, no signal -100 | GFP signal change (wild-type ribosome), % (concentration not given with the values) | 350,000 tested, 1.6% active;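 active = significant combined selectivity score with lowered wild-type GFP, culture density cut under 30%, mutant RFP and density less affected; inactive = any of these conditions unmet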; note: one replicate is shown; some compounds called inactive have numbers as strong as hits
Ecoli rRNA inh OD600: further read-out of Ecoli rRNA inh, marked with its call; OD600 change, %; measured here: OD600 growth;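 optical density of the mix in the first replicate; 0 = DMSO median and -100 = no signal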
Ecoli rRNA inh RFP: also measured in Ecoli rRNA inh; calls as there; RFP signal change, %; measured here: RFP humanized mutant strains;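 first replicate; 0 = DMSO median and -100 = no signal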
* = called active by the depositor; i = inactive; · = not tested or not shown.

SMILES | FGF22 binding | MLL AF4-AF9 inh | Ecoli rRNA inh | Ecoli rRNA inh OD600 | Ecoli rRNA inh RFP
Cc1ccc(-c2cnc3c(c2)C(=O)N([C@@H](C)CO)C[C@@H](C)[C@H](CN(C)C(=O)c2ccncc2)O3)cc1 | i | -4.7 | -4 | -3 | 1.0
O=C(Nc1ccccc1)OC[C@@H]1C=CS(=O)(=O)N1Cc1ccc(Br)cc1 | i | 0.6 | -8 | -21 | -2.2
O=C(Cc1cccnc1)N1[C@H](CNCC2CCC2)[C@H](c2ccccc2)[C@@H]1CO | i | 1.7 | 0 | 0 | -0.5
CC1(C)CC2(OC2c2ccccc2[N+](=O)[O-])C(=O)c2ccccc21 (stereo not given) | i | 5.8 | 4 | 13 | 5.8
C[C@@H]1CN([C@@H](C)CO)C(=O)c2cc(-c3ccccc3F)cnc2O[C@@H]1CN(C)C(=O)C1CCOCC1 | i | -2.2 | 5 | 11 | 0.4
Cc1ccc(S(=O)(=O)N(C)C[C@@H]2Oc3ccc(NC(=O)Nc4ccccc4)cc3C(=O)N([C@@H](C)CO)C[C@@H]2C)cc1 | i | -3.0 | -5 | -13 | 3.3
C[C@H](CO)N1C[C@H](C)[C@H](CN(C)C(=O)NC2CCCCC2)Oc2ccc(NC(=O)Nc3cccc4ccccc34)cc2CC1=O | i | -23 | -3 | -16 | 2.6
COc1ccc(CN(C)C[C@@H]2OCCCC[C@@H](C)Oc3ccc(NS(=O)(=O)c4c(C)noc4C)cc3C(=O)N([C@@H](C)CO)C[C@@H]2C)cc1 | i | 5.0 | 2 | -6 | 0.3
O=C(c1ccccc1)N1C[C@@H]2[C@H](c3ccccc31)[C@@H](CO)N2S(=O)(=O)c1ccccc1 | i | -1.2 | -5 | -7 | -1.7
CCNC(=O)C[C@@H]1CC[C@@H]2[C@H](COc3ccc(NC(=O)Nc4ccccc4Cl)cc3C(=O)N2C)O1 | i | -0.9 | -4 | -5 | 1.9
CCN=C1NC(CCc2ccccc2)C(C(=O)OC)=C(C)N1Cc1ccc(C(F)(F)F)cc1 (stereo not given) | · | 4.9 | -56 | -80 | -16
COC(=O)[C@@]1(Sc2ccc(C)cc2)CC(=O)N(c2ccc3c(ccn3C)c2)[C@@H]1c1ccccc1 | i | 0.2 | 2 | 6 | -2.3
CN(C)C(=O)[C@H]1[C@H](CO)[C@H]2Cn3c(ccc(C4=CCCCC4)c3=O)[C@H]2N1C(=O)c1ccccc1F | i | -1.3 | 2 | 2 | -3.5
CCCc1ccc2c(C(F)(F)F)cc(C(F)(F)F)cc2n1 | i | -6.9 | 5 | 8 | -1.2
O=C(C[C@H]1CC[C@H]2[C@@H](COC[C@@H](O)CN2S(=O)(=O)c2ccccc2)O1)NCc1ccc2c(c1)OCO2 | i | 0.0 | 1 | -1 | -0.6
COc1ccccc1NC(=O)N1C[C@@H](O)COC[C@@H]2O[C@@H](CC(=O)NCCc3ccncc3)CC[C@H]21 | i | 0.3 | 0 | 9 | 0.7
C[C@@H]1CN([C@H](C)CO)C(=O)c2cccc(NC(=O)NC3CCCCC3)c2O[C@@H]1CN(C)CC1CCCCC1 | i | -2.7 | 3 | 10 | 0.4
C[C@H](CO)N1C[C@H](C)[C@H](CN(C)C(=O)CN(C)C)Oc2ncc(C#CC3(O)CCCC3)cc2C1=O | i | -1.1 | 1 | 13 | -1.3
O=C(O)c1cnnc2ccccc12 | i | -2.5 | 6 | 10 | -1.0
CC(C)NC(=O)N(C)C[C@@H]1OCCCC[C@H](C)Oc2ccc(NC(=O)C3CCCCC3)cc2C(=O)N([C@@H](C)CO)C[C@H]1C | i | 0.0 | 1 | -4 | -2.1
CCCNC(=O)C1(C)CCCN(CC(=O)c2ccccc2OC)C1 (stereo not given) | i | -0.4 | 9 | 4 | 2.4
Cc1noc(C)c1S(=O)(=O)N(C)C[C@H]1Oc2c(cccc2N(C)C)C(=O)N([C@@H](C)CO)C[C@@H]1C | i | -2.1 | 4 | 4 | -4.9
COc1cccc(-c2ccc3c(c2)[C@@H]2[C@@H](CCN2C(=O)NC2CCCC2)[C@@H](CO)N3C)c1 | i | 5.0 | -5 | -7 | 3.2
O=C(Nc1ccc(Cl)cc1)N1C[C@@H]2[C@H](c3ccccc31)[C@H](CO)N2CC1CCCCC1 | i | 1.1 | -51 | -76 | -9.9

Entries shown so far that contain fluorine:
SMILES | FGF22 binding | MLL AF4-AF9 inh | Ecoli rRNA inh | Ecoli rRNA inh OD600 | Ecoli rRNA inh RFP
C[C@@H]1CN([C@@H](C)CO)C(=O)c2cc(-c3ccccc3F)cnc2O[C@@H]1CN(C)C(=O)C1CCOCC1 | i | -2.2 | 5 | 11 | 0.4
CCN=C1NC(CCc2ccccc2)C(C(=O)OC)=C(C)N1Cc1ccc(C(F)(F)F)cc1 (stereo not given) | · | 4.9 | -56 | -80 | -16
CN(C)C(=O)[C@H]1[C@H](CO)[C@H]2Cn3c(ccc(C4=CCCCC4)c3=O)[C@H]2N1C(=O)c1ccccc1F | i | -1.3 | 2 | 2 | -3.5
CCCc1ccc2c(C(F)(F)F)cc(C(F)(F)F)cc2n1 | i | -6.9 | 5 | 8 | -1.2

Going on with the list.
SMILES | FGF22 binding | MLL AF4-AF9 inh | Ecoli rRNA inh | Ecoli rRNA inh OD600 | Ecoli rRNA inh RFP
CCCNC(=O)N1CC2(C1)[C@H](c1ccccc1)[C@@H](CO)N2CC1CCOCC1 | i | -1.4 | 0 | 8 | -2.0
C[C@H](CO)N1C[C@H](C)[C@@H](CN(C)C(=O)Nc2ccc(F)cc2)Oc2ccc(NC(=O)c3ccncc3)cc2CC1=O | i | -1.8 | -1 | -2 | -0.6
C[C@H]1CN([C@@H](C)CO)C(=O)Cc2cc(NS(=O)(=O)c3ccccc3)ccc2O[C@H]1CN(C)Cc1ccc(-c2ccccc2)cc1 | i | -0.5 | 3 | 9 | 0.7
CN(C)C(=O)[C@H]1[C@H](CO)[C@H]2Cn3c(ccc(C4=CCCCC4)c3=O)[C@H]2N1Cc1ccc2c(c1)OCO2 | i | 1.0 | 1 | 1 | 4.1
C[C@@H]1CN([C@H](C)CO)C(=O)c2cc(NC(=O)CCC(F)(F)F)ccc2O[C@@H](C)CCCCO[C@H]1CN(C)C(=O)CCC(F)(F)F | i | -1.1 | -5 | 4 | -4.6
CC(C)(C)NCCC(O)c1cc(C(F)(F)F)nc2c(C(F)(F)F)cccc12 (stereo not given) | i | 4.0 | -68 | -78 | -25
CC(C)CCC1(CCO)C(=O)N=C(N)NC1=O (stereo not given) | i | -2.5 | 26 | 18 | 1.0
COc1cccc(S(=O)(=O)Nc2ccc3c(c2)[C@@H]2C[C@@H](CC(=O)O)O[C@@H](CO)[C@@H]2O3)c1 | i | -1.7 | 2 | 2 | 0.2
Cc1ccc(S(=O)(=O)Nc2ccc3c(c2)C(=O)N([C@@H](C)CO)C[C@H](C)[C@H](CN(C)S(=O)(=O)c2ccc(F)cc2)O3)cc1 | i | 0.4 | -3 | 1 | 6.1
CC1(C)SC2C(NC(=O)C3(N)CCCCC3)C(=O)N2C1C(=O)O (stereo not given) | i | -3.0 | 5 | 10 | -2.7
CO[C@@H]1CN(C)C(=O)c2cc(NC(=O)NC(C)C)ccc2OC[C@H](C)N(Cc2ccc(-c3ccccn3)cc2)C[C@@H]1C | i | 2.1 | 3 | 4 | -1.4
CO[C@@H]1CN(C)C(=O)c2ccc(NC(=O)Nc3ccccc3F)cc2OC[C@@H](C)NC[C@@H]1C | i | -1.7 | 3 | 0 | -0.9

In the list so far, these have a COOH group:
SMILES | FGF22 binding | MLL AF4-AF9 inh | Ecoli rRNA inh | Ecoli rRNA inh OD600 | Ecoli rRNA inh RFP
O=C(O)c1cnnc2ccccc12 | i | -2.5 | 6 | 10 | -1.0
COc1cccc(S(=O)(=O)Nc2ccc3c(c2)[C@@H]2C[C@@H](CC(=O)O)O[C@@H](CO)[C@@H]2O3)c1 | i | -1.7 | 2 | 2 | 0.2
CC1(C)SC2C(NC(=O)C3(N)CCCCC3)C(=O)N2C1C(=O)O (stereo not given) | i | -3.0 | 5 | 10 | -2.7

Other results
SMILES | FGF22 binding | MLL AF4-AF9 inh | Ecoli rRNA inh | Ecoli rRNA inh OD600 | Ecoli rRNA inh RFP
OC[C@@H]1[C@@H](c2ccccc2)C(c2cccc(Cl)c2)=NN1c1ccccc1 | i | -32 | -5 | -10 | 0.9
COc1ccc2c3c(n(C)c2c1)[C@@H](CO)N(Cc1ccncc1)CC31CCN(C(=O)Nc2cccc(F)c2)CC1 | i | 1.9 | -2 | -2 | 4.2
O=C1CCC[C@@H]2C[C@@]3(C[C@@H]4CCN1[C@H]24)Nc1cc(Cl)c(Cl)cc1NC3=NCc1ccccc1 | i | 12 | 5 | 1 | 6.3
C[C@@H]1CN([C@@H](C)CO)C(=O)c2cc(N(C)C)ccc2O[C@@H](C)CCCCO[C@H]1CN(C)S(C)(=O)=O | i | 0.1 | -2 | -7 | -0.6
COC(=O)N1CCCC(c2cc(C(=O)Nc3ccccc3Cl)no2)C1 (stereo not given) | i | 4.1 | -17 | -50 | -8.7
Cc1cccc(C)c1-n1nnnc1C(c1ccnc2ccccc12)N(C)Cc1ccccc1 (stereo not given) | i | -3.6 | 16 | 10 | 4.9
O=c1cc(CN2CCCCCCC2)c2ccccc2o1 | i | 4.5 | -4 | 1 | -2.3
C[C@@H]1CN([C@@H](C)CO)C(=O)c2cccc(NS(=O)(=O)c3cccs3)c2O[C@@H]1CN(C)C(=O)Nc1cccc2ccccc12 | i | 0.1 | 3 | 0 | 1.1
O=C(C1CCC1)N1CCCCN2[C@H](C1)[C@H](c1ccc(C#CC3(O)CCCC3)cc1)[C@@H]2CO | i | 1.0 | -1 | 1 | -2.8
CCCCOCC1CN(CCCC)S(=O)(=O)c2c(cccc2N2CCCCC2)O1 (stereo not given) | i | -4.3 | 13 | 0 | 47
CCCCNC1=CC(=O)C(NCCCC)=CC1=O | i | 6.6 | 1 | -3 | -4.5
CCCC(=O)N1CCC1(C)C(=O)Nc1ccc(OC)c(OC)c1 (stereo not given) | i | -2.4 | 6 | 13 | -3.5
CO[C@H]1CN(C)C(=O)c2cc(NS(=O)(=O)c3ccccc3Cl)ccc2OC[C@H](C)NC[C@H]1C | i | -2.9 | 6 | 1 | -2.1
C/C=C/c1cnc2c(c1)C(=O)N([C@H](C)CO)C[C@H](C)[C@H](CN(C)Cc1ccc3c(c1)OCO3)O2 | i | -2.7 | 6 | 6 | -0.7
COc1ccc(NC(=O)N(C)C[C@H]2Oc3ccc(NC(=O)c4ccncc4)cc3C(=O)N([C@@H](C)CO)C[C@@H]2C)cc1 | i | -2.6 | 4 | 3 | -1.5
CCCN1C[C@@H](C)[C@H](OC)CN(C)C(=O)c2cc(NC(=O)c3cccc(F)c3)ccc2OC[C@H]1C | i | 0.6 | -4 | -3 | 3.7
COc1ccc(S(=O)(=O)N[C@@H]2CC[C@H](CC(=O)N3CCN(c4ccccc4)CC3)O[C@H]2CO)cc1 | i | -0.8 | 0 | 1 | -0.7
C[C@H]1CN([C@@H](C)CO)S(=O)(=O)c2ccc(-c3cccnc3)cc2O[C@@H]1CN(C)C(=O)C1CCCCC1 | i | -1.3 | 2 | 1 | 1.1
C/C=C/c1ccc2c(c1)O[C@@H](CN(C)C(=O)Cc1cccnc1)[C@@H](C)CN([C@H](C)CO)S2(=O)=O | i | 2.0 | 5 | 19 | -1.5
C[C@H]1CN([C@@H](C)CO)C(=O)Cc2cc(NC(=O)Nc3ccc(C(F)(F)F)cc3)ccc2O[C@@H]1CN(C)C(=O)Nc1ccc(F)cc1 | i | -1.4 | 3 | 4 | 0.9
C[C@@H]1CN([C@@H](C)CO)C(=O)Cc2cc(NC(=O)C3CCCCC3)ccc2O[C@H]1CN(C)CC1CC1 | i | 0.8 | 4 | 11 | 1.7
C[C@H](CO)N1C[C@H](C)[C@H](CN(C)Cc2ccc(C(=O)Nc3ccccc3N)cc2)Oc2ccc(NC(=O)Nc3ccc(F)cc3)cc2CC1=O | i | 2.2 | -16 | -13 | 2.7
COCC(=O)NC[C@@H]1[C@@H](c2ccc(-c3ccccc3)cc2)[C@@H](CO)N1C(C)=O | i | 1.7 | -2 | -13 | -0.6
Cc1ccc(S(=O)(=O)N2CCCc3nc(C)c(C)cc32)cc1 | · | -1.8 | -15 | -36 | -5.1
COc1ccc(OC)c(CN2C(=O)CCC2(C)c2nnnn2-c2c(C)cccc2C)c1 (stereo not given) | i | -1.9 | -2 | -15 | 0.1

Compound activity deposited in PubChem by Broad Institute.

This is a subset, so the mix of outcomes need not match the whole.
